Screening results from PubChem BioAssay.
PrP 5UTR inh = suppresses PrP 5' UTR mRNA reporter expression; cell-based PrP 5' UTR mRNA reporter, plate reader; inhibition, % (concentration not given with the values); actives 0.35% (n = 340,000); AID 488862;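 active = every replicate at 50% or more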;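 also: 0 = median of the neutral control wells; tested in H4 reporter cells; numbers are from one replicate; inactives centre near -14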
Sa ugtP lethal = kills S. aureus RN4220 lacking UgtP; S. aureus RN4220 ugtP deletion, OD600 growth, 16 h; some inactives read as strong as hits; growth inhibition, % (test concentration not listed); actives 0.54% (n = 330,000); AID 1259309;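 active = z-score under -3 and OD600 up to 0.15 on both plates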;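 also: plate controls were untreated wells for no effect and antibiotic for full effect; wells of about 80 µL received 100 nL stock; the first replicate is given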
Autofluor counter = flagged as autofluorescent in microsphere protease counterscreen. fluorescence intensity (test concentration not listed). actives 3.1% (n = 360,000). AID 624483. compound autofluorescence counterscreen, microsphere flow cytometry; active compounds read high;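 active = at least 3 SD above the mean of all compounds, about 16000 in these data; inconclusive = too few beads counted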;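 also: 100 nL of 1 mM stock went into each well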
RN4220 kill = kills Staphylococcus aureus RN4220 | actives 0.33% (n = 330,000) | S. aureus RN4220 growth, OD600, 16 h | inhibition, % (concentration not given with the values);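 active = z-score of -3 or lower and OD600 up to 0.18 on both plates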;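 also: plate controls were untreated cells for no effect and reference antibiotic for full effect; stock transfer was 100 nL into about 80 µL; one replicate is shown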
Mtb hypoxia rep = Mtb hypoxia fluorescent reporter inhibition. M. tuberculosis hypoxia-regulated fluorescent reporter, fluorescence. fluorescence inhibition, % (no concentration beside the values). AID 1159583. actives 0.1% (n = 300,000);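 active = 35 to 45% if threefold the growth effect, above 45% if 1.5-fold the growth effect; inactive = the rest, general growth blockers included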;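 also: wells of about 50 µL received 100 nL stock; 0% = vehicle wells and 100% = reference inhibitor wells; whole bacteria with a GFP reporter of the hypoxia response; strong numbers were not always called active; many hits fall short of the cut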
BJeLR viability = kills HRASV12-expressing BJeLR cells | BJeLR (HRASV12) viability, CellTiter-Glo ATP luminescence, 48 h; reference of the scale not given here | inhibition, % (no concentration beside the values) | actives 0.17% (n = 300,000) | AID 1554;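 active = replicate mean above 50%; inconclusive = above 50% but judged a plate artefact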;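 also: 50 nL library stock added to about 25 µL; numbers are from one replicate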
Mtb hypoxia rep growth = second read-out of Mtb hypoxia rep, no call of its own (marks repeat the call); growth inhibition, %; measured here: M. tuberculosis growth (absorbance);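 0% = vehicle and 100% = reference antibiotic; read after six days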
Starred values were filed as active, the others as inactive; ? = inconclusive; · = not tested or not shown.

SMILES	PrP 5UTR inh	Sa ugtP lethal	Autofluor counter	RN4220 kill	Mtb hypoxia rep	Mtb hypoxia rep growth	BJeLR viability
O=C(c1cc(S(=O)(=O)N2CCOCC2)c(Cl)cc1Cl)N1CCCCC1CO (centres undefined)	-4	1	3484	2.5	12	7	-8
Cc1ccc(OCCCCn2cnc3ccccc32)cc1	-21	4	4032	5.6	5	11	12
COc1ccc(OCCCC(=O)Nc2nncs2)cc1	-13	6	4663	3.0	20	7	-1
Cc1ccc(-c2nc(NCc3cccnc3)c3ccccc3n2)cc1	-25	-10	10530	-14	-7	7	7
CS(=O)(=O)N(CC(=O)Nc1ccccc1C(=O)N1CCOCC1)c1ccc2c(c1)OCO2	-9	1	12011	-0.1	-3	-11	-6
CN(C(=O)C(C)(C)C)C1c2c(ccc3ccccc23)OCC1CO (centres undefined)	-13	4	3513	1.7	11	3	0
Cc1nc(NC(=O)c2ccccc2)sc1C1(C)CC(c2ccccc2F)=NO1 (centres undefined)	-21	1	2843	20	11	9	-10
CCOC(=O)N1CCN(C(=O)CN(C2CCCCC2)S(=O)(=O)c2ccc(C)cc2)CC1	-28	-3	3169	-10.0	10	8	-1
COc1cccc(C(=O)NCCSCc2ccccc2Cl)c1	5	-3	3389	1.1	7	0	-1
Cc1cc(CNC(=O)CCc2nnc(CCCc3ccccc3)o2)nn1C	-34	11	4597	-0.7	13	18	3
O=C(Nc1cc(S(=O)(=O)N2CCCCC2)ccc1N1CCCCC1)c1ccncc1	-13	7	5100	6.2	2	2	25
COc1cc2c(cc1OC)C(c1ccccc1)N(S(C)(=O)=O)CC2 (centres undefined)	-116	6	4202	-0.1	4	12	-2
NS(=O)(=O)c1ccc(CCNC(=O)CCC2COc3ccccc3O2)cc1 (centres undefined)	7	-4	3635	-2.3	·	·	1
O=[N+]([O-])c1ccc(OCC(O)CN2CCN(c3ccccc3F)CC2)cc1 (centres undefined)	-8	0	2459	3.2	5	16	-9
Cc1cc2cc(CNC(=O)NC3CCCCC3)ccc2n1C	-6	8	2076	1.0	18	10	1
Cc1cc(NN=Cc2ccccc2O)nc(-c2ccccc2O)n1	·	-15	·	-1.8	6	3	·
CCOC(=O)CSc1nc2cc(C)cc(C)c2cc1C#N	-60	11	2678	11	·	·	-3
CCCCc1ccc(NC2=NCCCS2)cc1	-18	5	3454	3.7	11	14	-2
Nc1nc(SCc2ccccc2)c2ncn(C3CCCCC3)c2n1	-22	-2	3593	3.0	14	7	·
CC1CCCC(NC(=O)COC(=O)c2ccccc2[N+](=O)[O-])C1C (centres undefined)	-24	-6	3208	1.9	6	6	-1
Cc1cc(C)cc(-n2ccn(CC(=O)NCCc3ccccc3)c(=O)c2=O)c1	-11	16	5113	7.5	0	-12	-3
CCN(CC(=O)Nc1cc(Cl)ccc1C)C(=O)Cn1c(=O)cnc2ccccc21	-8	-1	4714	4.4	8	0	3
CCCCNC(=O)C1CCCN(S(=O)(=O)CC)C1 (centres undefined)	-64	0	5157	-1.6	4	3	0
Cc1ccnc(SCc2cc(=O)c(OC(=O)c3ccc(Cl)c([N+](=O)[O-])c3)co2)n1	-13	2	10460	-2.6	-7	1	1
Cn1nccc1-c1cc(Cl)cc(Cl)c1O	0	0	5856	-3.9	1	7	0
O=C(COc1ccccc1[N+](=O)[O-])N/N=C/c1ccc(O)c([N+](=O)[O-])c1	-45	·	3387	·	·	·	-9
C[n+]1c2n(c3ccccc31)N=C(c1ccc(Cl)cc1)CS2	-17	18	6077	9.3	5	15	19
O=C(O)c1sc2ncccc2c1OCc1ccccc1	-15	13	2069	1.1	3	5	8
COC(=O)COc1ccc(S(=O)(=O)NCc2ccco2)cc1	-12	7	4954	1.6	4	6	-2
CCN(CC(=O)NC(C)C)C(=O)c1cc(S(=O)(=O)N2CCCCC2)ccc1N1CCCCC1	-17	5	3904	5.7	13	5	·
BrC(=C\c1ccccc1)/C=N/n1cnnc1	-17	·	5216	·	·	·	19
Cc1cc(SCC(=O)c2ccc3c(c2)OCO3)nc2ccccc12	·	7	11772	23	18	11	-9
O=C(CN1C(=O)NC(c2ccccc2)(c2ccccc2)C1=O)NCc1ccco1	-11	-5	4034	3.9	-1	8	·
C=CCN(CC=C)Cc1c(O)ccc2c(=O)c(-c3ccccc3)coc12	-24	6	?	5.6	·	·	-1
CCC(C)c1ccccc1OCC(=O)NN1C(=O)c2ccccc2C1=O (centres undefined)	-15	0	3746	1.1	5	4	-15
CN(CC(=O)Nc1ccccc1Br)C(=O)c1cc(S(=O)(=O)N(C)C)ccc1N1CCCC1	-26	7	·	1.6	-5	-2	4
O=C(COc1ccccc1F)NCC(c1ccc(F)cc1)N1CCOCC1 (centres undefined)	-19	0	6199	-1.9	-4	-6	·
O=C(O)c1ccc(NC(CSCc2ccccc2F)C(=O)O)c([N+](=O)[O-])c1 (centres undefined)	-20	16	2249	5.3	16	2	-11
CCC(C)C1(CC)C(=O)NC(=O)N=C1N (centres undefined)	-22	0	2295	0.2	7	-5	-6
Cc1cc(NC(=O)Nc2cccc(Cl)c2)n(-c2ccccc2)n1	-23	3	4762	8.1	2	-11	5
Cc1cc[n+]2c3c(cccc13)CCC2	-15	5	20480*	3.4	11	5	·
COCCOc1ccc(C(F)(F)F)cc1NC(=O)COC(=O)c1cc([N+](=O)[O-])ccc1N1CCOCC1	-9	1	5973	-2.7	2	9	-5
C/C(=N/NC(=O)CNC(=O)Cc1ccccc1)c1ccco1	-21	·	2629	·	·	·	-7
O=C(CNC(=O)c1ccc2c(c1)OCO2)Nc1cccc(Br)c1	-27	-5	2943	4.6	2	-7	·
Cc1ccc(S(=O)(=O)N2CCN(C(=O)C3CCN(C(=O)c4ccc(F)cc4)CC3)CC2)c(C)c1	-9	17	4864	6.5	11	1	8
CC(=O)C1(c2ccccc2)CCN(C(=O)C2CCC(=O)N(CCc3cccc(F)c3)C2)CC1 (centres undefined)	-8	1	4956	-2.3	-3	0	2
CC=CC(=O)N1CC2(CC(c3cccc(NC(=O)CCCCC)c3)=NO2)CC1C(N)=O (centres undefined)	·	1	·	2.5	5	8	·
CCn1c(O)c(N=NC(=O)c2cccs2)c2ccccc21	-25	-5	3935	12	-1	4	0
O=C(c1ccco1)N1CCN(c2nc3ccccc3n3nnnc23)CC1	-36	5	2990	3.3	·	·	·
Nc1nc2n(n1)C(c1cccs1)CC(c1ccc(F)cc1)N2 (centres undefined)	-31	-1	10469	6.7	1	10	5
O=C(NNC(=O)c1ccccc1OCc1ccc(F)cc1)c1ccccc1O	21	6	5879	1.5	0	-2	28
O=C(NCc1ccc(Cl)cc1)C(=O)c1cn(CC(=O)N2CCOCC2)c2ccccc12	-7	10	6412	-0.5	5	4	-4
N/C(=N\O)c1ccc(NC(=O)c2cccs2)cc1	-35	·	4654	·	·	·	-2
CC(=O)c1ccc(OC(=O)c2ccc(-n3nc(C)cc3C)cc2)cc1	-16	9	3872	5.7	8	3	-5
COc1ccc(Nc2ncnc3c2cnn3Cc2ccccc2)cc1	-17	18	5413	9.9	15	15	-11
COc1ccc(NC(=O)C2(N(C(=O)Cn3nnnc3N)c3ccc(OC)cc3)CCCCC2)cc1	-4	-1	6185	0.0	5	10	4
Cc1csc(NC(=O)c2ccc(C)c([N+](=O)[O-])c2)n1	-107	-15	2114	-3.2	-8	-6	-11
COc1ccc2c(=O)c(C(=O)O)c(-c3ccc4c(c3)OCO4)n(C)c2c1	-36	6	11065	0.9	6	2	-5
Cc1ccc(C(NC(=O)Nc2ccccn2)C(Cl)(Cl)Cl)cc1F (centres undefined)	-19	1	3795	2.4	13	0	0
CCNC(=S)NCc1ccc(OC)c(OC)c1	-10	3	3844	0.5	11	9	-18

Further structures follow.
SMILES	PrP 5UTR inh	Sa ugtP lethal	Autofluor counter	RN4220 kill	Mtb hypoxia rep	Mtb hypoxia rep growth	BJeLR viability
CCC1(c2ccccc2)NC(=O)N(CC(=O)NNC(=O)c2ccc(F)cc2)C1=O (centres undefined)	1	7	·	4.2	3	4	·
CC(C)CN(C(=O)CN1C(=O)NC(c2ccccc2)(c2ccccc2)C1=O)C1CCS(=O)(=O)C1 (centres undefined)	-8	-2	4272	2.6	3	-1	·
COCCn1c(N)c(C(=O)c2cccc(S(=O)(=O)N3CCCCCC3)c2)c(=O)[nH]c1=O	·	0	4699	4.2	-8	12	·
CC1Sc2ccc(S(=O)(=O)CCC(=O)N3CCCC3)cc2NC1=O (centres undefined)	-9	7	5120	3.2	5	8	-4
Clc1ccc(SCCCCN2CCOCC2)cc1	-12	1	2515	2.3	2	-3	-4
COc1cccc(NC(=O)COC(=O)Cc2ccccc2[N+](=O)[O-])c1	-15	4	3273	4.3	12	3	-1
O=C(CSc1nn(-c2ccc(F)cc2)c(=S)s1)NC(=O)NCc1ccco1	-42	9	9216	0.9	4	7	-5
COC(=O)c1ccc(OC)c(-c2c(OC)cc(OC)cc2OC)c1	-6	3	9608	0.9	-1	-4	-9
Cc1ccc(S(=O)(=O)NCCC(=O)NC2CCCCC2)cc1	-4	2	3725	1.8	-3	2	·
Cc1nc2ccccc2c(=O)n1-c1ccc(F)c(NS(=O)(=O)c2ccccc2F)c1	-13	-5	5594	1.9	3	2	-14
O=C(CN1C(=O)COc2ccccc21)N(CCCN1CCOCC1)CC1CC=CCC1 (centres undefined)	-34	12	11313	3.7	2	6	1
Cc1ccccc1C(=O)NC(CC(C)C)C(=O)Nc1ccc(S(N)(=O)=O)cc1 (centres undefined)	-31	-1	4964	11	17	11	-12
c1ccc2[nH]c(N3CCOCC3)nc2c1	-14	-5	2516	-15	2	7	13
COc1cc(NC(=O)COC(=O)/C=C/c2c(C)nn(C3CCS(=O)(=O)C3)c2Cl)cc(OC)c1OC (centres undefined)	-38	-2	2231	-3.6	·	·	3
COc1ccc(C)cc1S(=O)(=O)N1CCC(C(=O)N2CCN(C)CC2)CC1	-24	8	2629	3.9	11	6	-13

Gathered by group: the compounds so far with bromine
SMILES	PrP 5UTR inh	Sa ugtP lethal	Autofluor counter	RN4220 kill	Mtb hypoxia rep	Mtb hypoxia rep growth	BJeLR viability
BrC(=C\c1ccccc1)/C=N/n1cnnc1	-17	·	5216	·	·	·	19
CN(CC(=O)Nc1ccccc1Br)C(=O)c1cc(S(=O)(=O)N(C)C)ccc1N1CCCC1	-26	7	·	1.6	-5	-2	4
O=C(CNC(=O)c1ccc2c(c1)OCO2)Nc1cccc(Br)c1	-27	-5	2943	4.6	2	-7	·

Carrying on:
SMILES	PrP 5UTR inh	Sa ugtP lethal	Autofluor counter	RN4220 kill	Mtb hypoxia rep	Mtb hypoxia rep growth	BJeLR viability
COc1ccc(/C=C/CN2CCC(Oc3ccc(C(=O)N4CCCCC4)cc3)CC2)cc1	6	2	4520	0.1	2	-3	3
O=C(Cc1ccc(NC(=O)C2CCN(C(=O)C3CCCC3)CC2)cc1)Nc1cccc(C(=O)N2CCCCC2)c1	-13	-1	3560	3.2	-2	3	·
CC[N+](C)(CC)CCCOC(=O)C(O)(c1ccccc1)C1CCCCC1 (centres undefined)	-24	2	4330	-1.2	·	·	-7
Cc1ccccc1-c1nc2c3ccccc3nc(=S)n2[nH]1	-14	-4	3658	1.4	3	7	-18
O=C(/C=C/c1ccccc1)CC(=O)c1ccccc1	-34	9	3812	0.9	4	2	·
Cc1nn(-c2ccccc2)nc1CNS(C)(=O)=O	-16	5	4663	1.7	1	10	-10
CC(=O)Nc1nnc(SCC(=O)NC2CC2)s1	-28	11	3527	2.2	7	5	-6
CCOCCN1CCN(C2c3ccccc3CSc3ccccc32)CC1 (centres undefined)	-11	10	2965	-3.2	-2	-6	-17
CCN(CC(=O)Nc1ccccc1C(F)(F)F)C(=O)CSCc1c(C)noc1C	-16	0	?	4.9	9	1	2
CCSCCOC(=O)C1=C(C)NC(=O)NC1c1ccccc1 (centres undefined)	1	3	4351	3.1	4	-2	2

Record cards (already shown). Values in the order: PrP 5UTR inh, Sa ugtP lethal, Autofluor counter, RN4220 kill, Mtb hypoxia rep, Mtb hypoxia rep growth, BJeLR viability
Results for CC[N+](C)(CC)CCCOC(=O)C(O)(c1ccccc1)C1CCCCC1 (centres undefined) → -24, 2, 4330, -1.2, ·, ·, -7
Results for CCOCCN1CCN(C2c3ccccc3CSc3ccccc32)CC1 (centres undefined) → -11, 10, 2965, -3.2, -2, -6, -17
